Assay outcomes from PubChem BioAssay.
RE007 growth inh: less growth of the S. pombe RE007 Vpr strain; 360,000 tested, 0.21% active; Potency, µM (series often up to 92.2 µM), for the others: top-dose activity change, negative = less growth; AID 651644; S. pombe RE007 Vpr strain, BacTiter-Glo ATP luminescence, 24 h; control for the full effect not named in the record; active = well fitted falling curve with a large enough effect; inconclusive = small, poorly fitted or top-dose-only effect; inactive = no such curve, though single readings can be large or run the other way;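 note: % is set by controls: 0 for no effect and ±100 for the full control effect; nearly all actives have a fitted effect of over 50% in size; the assay follows cell death caused by Vpr and the record does not say whether a fall means rescue or toxicity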
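Fission yeast strain RE007, carrying one chromosomally integrated HIV-1 vpr copy, was seeded at OD 0.01 in PMG+AL medium with 23 nL pinned compound. After 24 h at 30 °C and 99% humidity, viability was read by BacTiter-Glo luminescence.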
MARV entry inh: inhibitors of Marburg virus binding or cell entry | Marburg virus pseudotyped entry inhibition, cell reporter; control for the full effect not named in the record; about a third of the inactives were read at about 46 µM | Potency, µM (titrated, usually from 37.8 µM), for the others: at the top dose activity change, negative = inhibition, hits mostly inhibitors | 300,000 tested, 1.8% active; active = well fitted inhibition curve with a large enough effect; inconclusive = small, poorly fitted or top-dose-only effect, or effect the other way; inactive = flat fitted curve, though single readings scatter; tested in HEK293 cells; about a fifth of its hits are not listed in these tables; note: % is set by controls: 0 for no effect and ±100 for the full control effect; luciferase read-out
Cruzain noTriton: blocks cruzain activity in detergent-free assay. purified cruzain, Z-FR-AMC fluorescence, no detergent. 200,000 tested, 2.3% active. P25779. Potency, µM, inactives show max response, negative = inhibition, hits mostly inhibitors; active = well fitted curve in the direction sought with a large enough effect; inconclusive = small, poorly fitted or top-dose-only effect, or another doubt; inactive = no such curve, though single readings can be large; an effect the other way counts as inactive or inconclusive;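 note: plate controls were enzyme without inhibitor for no effect and buffer without enzyme for full effect; nearly all actives have a fitted effect of over 40% in size; top concentration of the series not given in the record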
Target sequence (P25779 123-467 limits assumed): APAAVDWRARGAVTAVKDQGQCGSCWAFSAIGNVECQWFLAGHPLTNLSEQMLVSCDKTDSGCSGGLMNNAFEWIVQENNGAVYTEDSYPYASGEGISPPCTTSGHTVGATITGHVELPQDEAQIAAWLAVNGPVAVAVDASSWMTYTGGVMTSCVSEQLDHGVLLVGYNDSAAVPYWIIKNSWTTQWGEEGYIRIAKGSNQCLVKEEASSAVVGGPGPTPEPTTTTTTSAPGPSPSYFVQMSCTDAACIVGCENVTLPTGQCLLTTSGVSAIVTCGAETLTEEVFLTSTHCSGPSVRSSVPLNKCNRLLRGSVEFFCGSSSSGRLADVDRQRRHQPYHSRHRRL
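Detergent-free condition (0.00005% Triton X-100) in acetate buffer pH 5.5 with DTT. 1.5 nM enzyme and compound were pre-mixed 15 min, then 2 uM Z-FR-AMC substrate added; reaction progress from fluorescence change between first and third reads (60 s).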
NS1 function inh: blocks influenza NS1 protein function. S. cerevisiae slowed by influenza A NS1, growth recovery by OD600. Potency, µM (doses to about 46.1 µM), for the others: at the highest dose activity, positive = more growth. 270,000 tested, 0.4% active. AID 2326; note: actives are rising curves; nearly all actives have a fitted effect of over 50% in size
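Read-out: OD600 growth recovery of NS1-expressing budding yeast. Cells grown overnight at 30C in -URA glucose medium, washed, resuspended and diluted 1:100 in 2% galactose assay medium, pH 6.0. Same strain lacking NS1 served as positive control.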
Cruzain inh Det: blocks cruzain activity in presence of Triton detergent; P25779; purified cruzain, Z-FR-AMC fluorescence, 0.01% Triton; Potency, µM, for the others: max response, negative = inhibition, usual class: inhibitors; 200,000 tested, 0.43% active; active = well fitted curve in the direction sought with a large enough effect; inconclusive = small, poorly fitted or top-dose-only effect, or another doubt; inactive = no such curve, though single readings can be large; an effect the other way counts as inactive or inconclusive;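 note: plate controls were neutral wells for no effect and buffer without enzyme for full effect; nearly all actives have a fitted effect of over 40% in size; top concentration of the series not given in the record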
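Cruzain (1.5 nM) preincubated 15 min at RT with compound in 100 mM sodium acetate pH 5.5, 5 mM DTT, 0.01% Triton X-100. Reaction started with 2 uM Z-FR-AMC; AMC fluorescence (ex 360/em 450 nm) change over 60 s gave rate.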
StopGo reporter: FMDV 2A StopGo reporter, luciferase signal | AID 1159524 | human cells with a luciferase reporter of 2A StopGo recoding; control for the full effect not named in the record | Potency, µM (series often up to 57.9 µM), for inactives: top-dose signal change, negative = less light | 410,000 tested, 1.2% active; active = well fitted falling curve with a large enough effect; inconclusive = small, poorly fitted or top-dose-only effect; inactive = no such curve, though single readings can be large or run the other way; tested in HEK293T cells; note: % is set by controls: 0 for no effect and ±100 for the full control effect; nearly all actives have a fitted effect of over 45% in size; luciferase light after 4 h
LASV entry inh: blocks Lassa virus binding to or entry into cells. Potency, µM (series often up to 37.9 µM), for inactives: top-dose activity change, negative = inhibition, actives largely listed as inhibitors. AID 540256. 300,000 tested, 1.2% active. Lassa virus pseudotype entry inhibition, cell reporter; control for the full effect not named in the record; active means well fitted inhibition curve with a large enough effect; inconclusive means small, poorly fitted or top-dose-only effect, or effect the other way; inactive means flat fitted curve, though single readings scatter; tested in HEK293 cells; note: % is set by controls: 0 for no effect and ±100 for the full control effect; nearly all actives have a fitted effect of over 50% in size; luciferase read-out
SARS PLpro yeast: inhibitors of SARS-CoV papain-like protease in yeast; S. cerevisiae expressing SARS-CoV PLpro, growth rescue; control for the full effect not named in the record; Potency, µM (top dose mostly 32.9 µM), inactives show top-dose activity, positive = growth rescue; 330,000 tested, 0.19% active; note: 0% is about no effect; nearly all actives have a fitted effect of over 55% in size; growth read by luminescence after 48 h
Active calls of the source: *; ? = inconclusive; / = no result given; & = joins results of further samples; [ ] = dose if it differs, or a comment. Unless noted, calls come from the whole dose curve; as a rule, active means well fitted rising curve with a large enough effect; inconclusive means small, poorly fitted or top-dose-only effect; inactive means no such curve, though single readings can be large or run the other way. Potency is the fitted concentration of half-maximal effect. No enrichment for hits. Share with any hit: about 4.8%.

SMILES	RE007 growth inh	MARV entry inh	Cruzain noTriton	NS1 function inh	Cruzain inh Det	StopGo reporter	LASV entry inh	SARS PLpro yeast
CS(=O)(=O)c1ccc(C(=O)Nc2ccc(-c3nc4ccccc4[nH]3)cc2)cc1	0%	/	/	25%	/	?	/	5%
CCCC1=NN2C(=N)/C(=C\c3ccc(OCCOc4ccc(NC(C)=O)cc4)c(OC)c3)C(=O)N=C2S1	2%	-11%	/	5%	/	-5%	?	-3%
COc1ccccc1CCC(=O)N(C)CC(=O)Nc1ccc(Cl)c(C(F)(F)F)c1	-13%	-23%	/	-8%	/	-25%	?	-10%
COc1ccc(Br)cc1CN(C)CC(=O)Nc1cc([N+](=O)[O-])ccc1OC	7%	?	-3%	2%	-6.4%	-29%	?	10%
CC(=O)NC(c1ccc(F)cc1)c1cccnc1 (stereo not given)	9%	?	-7%	8%	0.8%	9%	7%	-2%
COc1cc(O)ccc1-c1nc2ccc(Br)cn2c1Nc1ccccc1C	/	?	12%	/	-9.3%	?	?	/
COc1ccc(C2CC(c3ccc(C)cc3)Nc3ncnn32)cc1 (stereo not given)	10%	/	-1%	-8%	0.0%	-12%	/	-2%
CCSc1nnc(-c2ccc(Cl)cc2)c2ccccc12	12%	8%	-2%	1%	-7.0%	11%	2%	0%
CCCCOCC(O)Cn1c(C)nc2ccccc21 (stereo not given)	0%	-9%	7%	-3%	-1.7%	/	-16%	2%
COCCn1c(C(C)C)nc2sc3ccccc3c(=O)c2c1=O	-3%	-10%	7%	1%	0.0%	-12%	-22%	-1%
COc1ccc(CC(=O)NCCS(=O)(=O)N2CCN(c3ccccc3F)CC2)cc1OC	/	/	1%	/	-1.4%	-16%	-23%[46.1 µM]	/
COc1ccc(CCNc2nc(C)cc(C)c2C#N)cc1OC	-2%	/	/	-6%	/	?	/	-2%
CCOc1ccc(-n2c(C)nc3cc(C(=O)NCc4ccco4)ccc32)cc1	12%	31%	1%	-46%	-4.8%	15%	?	-3%
CC(=O)c1cccc(NC(=O)COC(=O)c2ccccc2C)c1	-2%	?	/	-25%	/	46%[activator]	?	-24%
C=CCC(O)(CC=C)CNC(=O)C1CCC(=O)N(CCCc2ccccc2)C1 (stereo not given)	-2%	-24%[46.1 µM]	/	13%	/	-9%	17%[46.1 µM]	9%
Cc1cc(C)c(C2=NOC(O)(C(F)(F)F)C2)c(=O)[nH]1 (stereo not given)	13%	14%	-4%	-7%	-4.7%	-21%	12%	5%
COc1ccc(C(=O)N=c2sc3cc(Cl)ccc3n2C)cc1	/	/	-7%	/	-1.0%	20%	-24%[46.1 µM]	/
Cc1ccc(C2=CC(c3c(F)cccc3Cl)n3ncnc3N2)cc1C (stereo not given)	/	/	3%	/	-0.3%	-9%	-18%[46.1 µM]	/
CC(OC(=O)c1nsc(Cl)c1Cl)C(=O)NCCc1ccccc1 (stereo not given)	28%	22%[46.1 µM]	/	-41%	/	-6%	16%	1%
CC1=NN(c2ccccc2)C(=O)/C1=C/C=C/C=C/N(C)C	?	-27%[46.1 µM]	/	/	/	?	2%	-7%
CN(C)c1ccc(N=Nc2ccccc2C(=O)OCC(=O)N2CCCC2)cc1	7%	-26%	24%	6%	-13%	13%	-1%	-16%
O=c1cc(-c2ccc(C3CCCCC3)cc2)[nH][nH]1	8%	3%[46.1 µM]	/	/	/	49%[activator]	23%	1%
O=C1CCc2cc(S(=O)(=O)N3CCN(c4ccccc4)CC3)cc3c2N1CCC3	5%	26%	/	/	/	-17%	-11%	/
COc1ccc(OC)c(Nc2cc(C)nc3ccc(C)cc23)c1	-6%	?	/	/	/	?	?	/
COc1cccc(C2C(C(=O)Nc3ccccc3)=C(C)Nc3nnnn32)c1OC (stereo not given)	/	/	-6%	/	-0.9%	-1%	-22%[46.1 µM]	/
COc1c(C)cc(C(=O)C2CCCN(C(=O)c3cc4nc(C)cc(C)n4n3)C2)cc1C (stereo not given)	8%	/	/	6%	/	25%	/	0%
Cc1ccc([N+](=O)[O-])cc1NC(=O)CN(C(=O)c1ccccc1Cl)C1CCCCC1	15%	-1%	-4%	9%	-5.6%	-29%	8%	6%
Cc1ccccc1Cn1c(=O)n(CCCC(=O)NCc2ccco2)c(=O)c2sccc21	8%	-27%	-11%	-3%	1.7%	-12%	?	0%
CCOC(=O)c1ccc(N2C(=O)c3n[nH]c(-c4ccco4)c3C2c2ccc(C)cc2)cc1 (stereo not given)	/	?	?	/	-6.6%	32µM*	?	/
COc1ccc(C(CC(=O)N2CCC3(CC2)OCCO3)NS(=O)(=O)c2ccc(OC)cc2)cc1 (stereo not given)	-4%	9%&9%[46.1 µM]	3%	-8%	3.8%	-13%	-23%	13%
COc1ccccc1-n1cnc2cc(NCc3ccccn3)ccc21	-3%	2%	-17%	-26%	4.5%	?	-24%	-6%
CCn1ccc(C(=O)NC2CCCC2)n1	-13%	7%[46.1 µM]	/	-1%	/	1%	-10%[46.1 µM]	2%
CCOc1cccc2cc(-c3nc4sc(C(=O)Nc5ccc(C)cc5)c(C)c4c(=O)[nH]3)c(=O)oc12	/	/	7%	/	-0.9%	-6%	23%[46.1 µM]	/
CCn1nc(C)c(/C=N/NC(=S)Nc2ccc(Cl)cc2Cl)c1C	-9%	-18%	10%	7%	-1.8%	10%	-9%	18%
N#C/C(=C\c1c(N2CCN(c3ccccc3)CC2)nc2ccccn2c1=O)S(=O)(=O)c1ccccc1	12%	27%[46.1 µM]	/	-3%	/	15%	11%[46.1 µM]	-11%
CC(C)Oc1ccc(CNC(=O)c2cnc3sc(N4CCCC4)nn3c2=O)cc1	/	/	7%	/	0.2%	-14%	?	/
CCOC(=O)c1c(C)[nH]c(C(=O)CSc2nnc(-c3cccs3)n2Cc2ccccc2)c1C	9%	?	-2%	14%	2.1%	-30%	-6%	-2%
COc1ccc2[nH]c(=O)c(CN(C(=O)c3cccnc3)c3ccc(C)cc3)cc2c1	3%	-12%	3%	12%	-1.3%	-15%	1%	-4%
CN1C(C(=O)Nc2cccc(O)c2)=CC(c2ccco2)=NS1(=O)=O	-7%	?	10%	16%	-3.3%	-27%&-12%	-6%[46.1 µM]	4%
COC(=O)CN(c1cccc(F)c1)S(C)(=O)=O	-5%	?	11%	3%	-0.9%	-5%	2%	4%
CC(C)C(=O)NC(=S)Nc1ccccc1F	-5%	?	-3%	13%	3.1%	5%	1%	?
O=C(COC(=O)CCCC1=NS(=O)(=O)c2ccccc2N1)Nc1ccc(Br)cc1	3%	26%&26%[46.1 µM]	2%	-11%	-1.8%	-2%&0%	?	-2%
Cc1ccccc1NC(=O)CSc1c(C(C)C)cnc2c1c(=O)n(C)c(=O)n2C	/	/	2%	/	1.1%	-2%	-1%[46.1 µM]	/
O=C(Cn1c(=O)c2c(ncn2C2CCCC2)n(Cc2ccccc2)c1=O)N1CCc2ccccc21	-1%	-4%	?	?	1.7%	-2%	?	-2%
Cc1cccc(NC(=O)CCN2C(=O)c3ccccc3S2(=O)=O)c1C	-1%	/	/	5%	/	-13%	/	1%
Cc1nc2ncccn2c1-c1csc(Nc2ccc(S(N)(=O)=O)cc2)n1	5%	/	/	4%	/	3%	/	0%
C/C(CCc1ccc2c(c1)OCO2)=N\NC(=O)c1ccc(C)cc1C	1%	-18%[46.1 µM]	/	3%	/	-11%	?	-3%
O=C(Nc1cc(Cl)ccc1Cl)P(=O)(O)c1ccccc1	-7%	1%[46.1 µM]	/	/	/	-3%	10%[46.1 µM]	/
COc1ccc(-c2[nH]ncc2CN(C)C(C)c2ccon2)c(OC)c1 (stereo not given)	7%	/	/	-5%	/	-20%	/	2%
Cc1ccc(NC(=O)N2CCN(c3nnc(C)c4c(C)n(-c5ccc(Cl)cc5)nc34)CC2)c(C)c1	/	/	-7%	/	-0.4%	-4%	-6%[46.1 µM]	/

Other structures follow.
SMILES	RE007 growth inh	MARV entry inh	Cruzain noTriton	NS1 function inh	Cruzain inh Det	StopGo reporter	LASV entry inh	SARS PLpro yeast
COc1cccc(N2CC(C(=O)NNC(=O)c3ccc(Cl)cc3)CC2=O)c1 (stereo not given)	0%	1%	/	3%	/	0%	1%	0%
COc1ccc(C(=O)N2CCN(C)C(C)C2)cc1OC1CCN(C(C)=O)CC1 (stereo not given)	1%	?	/	10%	/	-10%	12%	33%
CN1C(=O)C(CC(=O)N2CCN(C(c3ccccc3)c3ccccc3)CC2)N(C)C1=O (stereo not given)	-12%	-9%	1%	6%	3.0%	4%	-4%	7%
Cc1cc(S(=O)(=O)NC2CCCC2)ccc1F	1%	23%	5%	-1%	0.9%	16%	10%	-6%
COCC(=O)N(Cc1cc2cc(OC)ccc2[nH]c1=O)c1ccc(C)cc1	2%	-9%	-8%	-9%	-0.4%	0%	-18%	0%
COC(=O)c1ccc(NC(=O)C2CC(=O)N(c3ccc(C)cc3)C2)cc1 (stereo not given)	2%	15%	3%	-5%[9.22 µM]	-0.3%	15%	15%	5%
Cc1ccccc1Cn1c(=O)n(-c2ccccc2)c(=O)c2ccc(C(=O)NCc3ccco3)cc21	/	15%	?	11%	-0.7%	/	0%	1%
CCOC(=O)c1c(C)c(-c2ccccc2)n(CC(=O)N2CCN(C)CC2)c1C	7%	/	-3%	4%	2.5%	-20%	/	4%
Cc1cc(S(=O)(=O)N(Cc2ccccn2)Cc2ccco2)ccc1-n1cnnn1	4%	3%	-2%	-2%	1.2%	/	13%	-5%
CCCn1c(SCC(=O)Nc2ccccc2OC)nnc1-c1ccco1	13%	?	/	3%	/	15%	?	25%
CCN1c2ccccc2-c2nc(SCC(=O)NCc3ccccc3)ncc2S1(=O)=O	/	/	-4%	/	4.0%	0%	-17%[46.1 µM]	/
COC(=O)Cc1c(O)ccn(Cc2cccc(C(F)(F)F)c2)c1=O	7%	-3%[46.1 µM]	/	2%	/	5%	8%	-2%
O=C(NNC1=C(C(=O)C(F)(F)F)CCC1)c1ccccc1Cl	21%	9%	1%	-115%	-5.1%	0%	8%	-6%
